Screening data deposited in PubChem BioAssay by several laboratories.
Env fusion inh: blocks HIV Env-driven cell-cell fusion. HeLa-JRFL Env/CEM21 cell fusion, luciferase. inhibition, % at 12.3 µM. hit rate 1.1% among 360,000;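 active = mean replicate inhibition score of at least 50 and every replicate individually at or above 50; inconclusive = only one of the two criteria met; inactive = mean below 50 and not all replicates reaching 50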;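 also: 0% = plate neutral controls and 100% = maraviroc near 300 nM; one replicate is shown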
PABP polyA inh: blocks human PABP binding to poly(A) RNA | fluorescence polarization | inhibition, % at 35 µM | hit rate 1% among 290,000;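 active = 50% or more with normal probe brightness, or confirmed in later tests; inconclusive = above 50% with abnormal brightness, or retests that disagree; inactive = below 50% or failed in later tests; about a fifth of its hits are not listed in these tables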;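 also: calls also rest on retests at 20 µM and on dose response follow-up; controls were probe without protein and protein plus probe with vehicle; some compounds called inactive have numbers as strong as hits; many hits fall short of the cut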
Target sequence (P11940 whole entry, looked up): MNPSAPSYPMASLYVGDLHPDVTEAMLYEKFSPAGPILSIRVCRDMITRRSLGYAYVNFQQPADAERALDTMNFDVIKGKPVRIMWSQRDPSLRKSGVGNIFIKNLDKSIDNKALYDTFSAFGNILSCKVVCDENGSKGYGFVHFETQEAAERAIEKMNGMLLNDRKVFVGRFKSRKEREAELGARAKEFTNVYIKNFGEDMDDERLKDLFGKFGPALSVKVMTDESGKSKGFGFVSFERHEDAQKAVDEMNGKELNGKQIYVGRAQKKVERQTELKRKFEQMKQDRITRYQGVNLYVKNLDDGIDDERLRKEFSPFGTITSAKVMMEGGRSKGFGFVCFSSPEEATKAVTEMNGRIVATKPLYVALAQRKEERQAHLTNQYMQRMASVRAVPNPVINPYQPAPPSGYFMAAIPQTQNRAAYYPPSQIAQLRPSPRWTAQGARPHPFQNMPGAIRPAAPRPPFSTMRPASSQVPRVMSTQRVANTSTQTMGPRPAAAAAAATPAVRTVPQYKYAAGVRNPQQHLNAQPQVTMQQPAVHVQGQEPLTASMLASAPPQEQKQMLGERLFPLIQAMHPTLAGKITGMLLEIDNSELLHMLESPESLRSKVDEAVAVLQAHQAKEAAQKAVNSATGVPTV
Yeast UUG start: alters start codon recognition fidelity in yeast | hit rate 0.13% among 350,000 | S. cerevisiae UUG-firefly luciferase reporter, luminescence/redox ratio | activity score, % at 18.7 µM;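 active = replicate mean at a twofold rise or more, about +100% in these data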;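 also: firefly luciferase made from a UUG start codon reports start codon fidelity; reporter light over untreated wells divided by growth signal over untreated wells; some hits fall short of that in this replicate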
eIF4H inh: inhibitors of RNA binding by human eIF4H | Q15056 | eIF4H fluorescence polarization binding assay | inhibition, % at 35 µM | hit rate 0.94% among 290,000 | AID 2012;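 active = 50% or more with normal probe brightness, or confirmed in later tests; inconclusive = above 50% with abnormal brightness, or retests that disagree; inactive = below 50% or failed in later tests; about a fifth of its hits are not listed in these tables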;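 also: calls also rest on retests at 20 µM and on dose response follow-up; 0% = protein and probe with vehicle and 100% = probe without protein; strong numbers were not always called active; many hits fall short of the cut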
CSC inhib: blocks cancer stem cells; cancer stem cell-like cells viability, luminescence; inhibition, % at 7.5 µM; hit rate 1.1% among 300,000;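 active = mean at 75% or more and at least half the replicates too; inconclusive = mean and replicates disagree; tested in HMLE shEcad cells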;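 also: 0% = median of negative and 100% = median of positive control wells; the first replicate is given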
Rce1 inh: blocks yeast Ras-converting enzyme. calls only. yeast membranes, quenched prenylated peptide cleavage fluorescence. AID 2563. hit rate 0.27% among 290,000. Q03530;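 active = fall in fluorescence gain of 50% or more versus controls, with final raw signal at or below 3038400; inconclusive = same 50% fall but final raw signal above 3038400; inactive = fall in fluorescence gain under 50%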;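 also: plate controls were neutral control wells for no effect and wells lacking membranes for full effect; tested at 10 µM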
MT1-MMP act inh: inhibitors of human MT1-MMP activation. HT1080 RFP-PRO-GFP cells, GFP/RFP ratio fluorescence, overnight; percent of plate control window, DMSO zero. GFP/RFP ratio change, % at 20 µM. hit rate 0.061% among 360,000. AID 651647;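 active = GFP/RFP ratio change of at least 30% with cell ATP level not reduced by more than half and red fluorescence within 50% of control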; also: strong numbers were not always called active
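Assay system: HT1080 RFP-PRO-GFP cells. Benchmarks: DMSO vehicle wells and RFP-L50D-GFP reporter cell wells. Times: overnight cell settling, then overnight compound exposure, 37 °C, 5% CO2. Compound: 20 µM single dose, 1% DMSO. Read-out basis: GFP/RFP fluorescence ratio.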
eIF4H inh retest: also measured in eIF4H inh; calls as there; inhibition, %; compound at 20 µM; confirmation average;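 mean of two retest wells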
PABP polyA inh retest: also measured in PABP polyA inh; calls as there; inhibition, %; compound at 20 µM; confirmation repeats;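 mean of two retest wells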
MT1-MMP act inh RFP: second read-out of MT1-MMP act inh, no call of its own (marks repeat the call); RFP signal change, %; measured here: RFP expression control read;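 0 = vehicle wells; hits needed this value within 50% of zero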
Numbers without * were called inactive; i = inactive; ? = inconclusive; . = no result given. No enrichment for hits; 3% or so of the library scored in one or more.

SMILES	Env fusion inh	PABP polyA inh	Yeast UUG start	eIF4H inh	CSC inhib	Rce1 inh	MT1-MMP act inh	MT1-MMP act inh RFP	others
O=C(CSc1nnc(-c2ccccc2F)n1C1CC1)NC(=O)c1cccc([N+](=O)[O-])c1	.	-7	-1	2	-2	i	6	10
Cc1cccc(-n2nc([N+](=O)[O-])c(=NC3CCN(Cc4ccccc4)CC3)n2O)c1	7	6	.	4	8	i	-6	-1
CC1COCC(C)N1C(=O)c1cccnc1 (centres undefined)	7	.	-19	.	.	.	-2	0
CC(C)Cn1c(-c2ccco2)csc1=Nc1cccnc1	.	-1	-15	-4	24	i	0	3
O=C1c2ccccc2C(=O)C1Cc1cccc2ccccc12	.	0	-11	0	-9	i	-3	5
CCn1c(=N)c(S(=O)(=O)c2ccc(Cl)cc2)cc2c(=O)n3ccccc3nc21	.	105*	.	83*	1	i	.	.	eIF4H inh retest=97*;PABP polyA inh retest=74*
COc1ccc(NC(=O)CN(C)S(=O)(=O)c2ccccc2)cc1	.	2	15	7	-4	i	-7	-2
COc1cc(-n2nc(C)c3c2OC(N)=C(C#N)C3c2ccccc2)c(Cl)c(Br)c1O (centres undefined)	.	23	-14	-8	-6	i	-29	-4
COc1ccc(Cn2c(C3CCCCC3)nc3c(c(=O)c4ccccc4n3C)c2=O)cc1	.	14	.	-4	36	i	.	.
COC(=O)/C=C/S(=O)(=O)c1ccc(NC(C)=O)cc1	-46	6	-22	5	40	i	-1	-3
CC(C)C(NC(=O)c1ccccc1F)C(=O)Nc1ccc2c(c1)OCO2 (centres undefined)	13	-11	.	0	-4	i	1	3
CCNC(=O)Cn1cnc2c1c(=O)n(C)c(=O)n2C	-7	-2	-8	-4	.	i	3	4
Fc1cc(Cl)cc2ccc(-c3ccccc3)nc12	-20	.	-16	.	.	.	4	3
NS(=O)(=O)c1ccc(NC2=CC(c3ccc(F)cc3)N(c3ccc(S(N)(=O)=O)cc3)C2=O)cc1 (centres undefined)	-1	11	0	-8	-6	i	-3	3
CCn1cc(-c2ccccc2)c(C(=O)O)c1-c1ccc(OC)cc1	14	.	-15	.	-6	i	1	4
CCOC(=O)/C(C(=O)Nc1ccc(Br)cc1)=C1/NC(C)(C)Cc2ccccc21	5	29	.	1	41	i	2	-1
COc1ccc(N(CC(=O)NCCC2=CCCCC2)S(=O)(=O)c2ccc(C)cc2)cc1OC	18	2	.	22	-2	i	0	2
CCC(=O)Nc1c(C(=O)Nc2ccc3c(c2)OCCO3)oc2ccccc12	-40	23	.	-5	.	i	0	1
COc1ccc(N/C=C\C(=O)c2ccc(C)cc2)cc1OC	15	-11	.	0	.	i	-1	-2
O=C(COc1ccc(Cl)cc1Cl)NCCN1CCCC1	-4	.	-3	.	.	.	4	0
CC(Oc1ccc(Cl)cc1)C(=O)Nc1ccc(S(=O)(=O)N2CCOCC2)cc1 (centres undefined)	4	6	3	-2	-13	.	-1	-4
S=C(NCCc1ccccc1)NC1CC1	-10	3	-13	9	-19	i	-1	2
Oc1ccc(Br)cc1/C=N/NC(=S)NCCc1ccccc1	14	15	-37	11	105*	i	3	-7
O=C(Nc1nnc(SCc2ccccc2)s1)c1cccs1	-35	7	-12	9	.	i	-3	-1
CCCCn1c(CNC(=O)C23CC4CC(CC(C4)C2)C3)nnc1SC(C)CC (centres undefined)	16	4	.	-7	27	i	-5	-12
O=C(c1c(F)cccc1Cl)N(Cc1ccco1)C1CCS(=O)(=O)C1 (centres undefined)	-6	.	-12	.	.	.	0	6
CC(C)[C@H](NC(=O)[C@@H]1CSC2c3ccccc3C(=O)N21)C(=O)NC1CCCC1 (some centres undefined)	-1	.	2	.	-12	i	-2	-1
O=C(Nc1cccc2ccccc12)OC1C=CS(=O)(=O)C1 (centres undefined)	-113	-6	-3	8	.	i	-4	2
C/C(CCc1ccccc1)=N\NC(=O)C1C2CCCCC21 (centres undefined)	-2	11	.	3	.	i	1	3
COc1ccc(C2c3c(oc4ccccc4c3=O)C(=O)N2CCN2CCOCC2)cc1OC (centres undefined)	3	.	-10	.	-11	.	5	6
COCCCNC(=O)/C(C#N)=C/c1c(N2CCCCCC2)nc2ccccn2c1=O	6	8	-5	-11	7	i	-1	5
COc1cc(C2CC(=O)OC3=C2C(=O)CC(C)(C)C3)cc(OC)c1OC (centres undefined)	-20	9	.	0	-1	i	2	6
S=C(NCCN1CCOCC1)C(=S)NCCN1CCOCC1	-24	.	-11	.	.	.	4	4
NC(=O)C1CCN(C(=O)NC(=O)c2ccccc2)CC1	-27	-12	-1	-8	-15	i	3	4
COc1ccccc1NC(=O)c1ccc(-n2ccnc2)c([N+](=O)[O-])c1	-12	16	-24	-5	3	i	-1	1
CC1CC(C)CN(C(=O)c2cc3c(s2)CCC3)C1 (centres undefined)	.	1	-12	2	-11	i	2	0
C=CC[C@@H](CC(=O)N[C@@H](CO)Cc1ccccc1)C(=O)NCCOC(=O)[C@@H](CC=C)Cc1ccc(F)cc1	-86	.	-10	.	14	.	0	-1
CCOC(=O)CSc1ccc2nnc(CCNS(=O)(=O)c3ccc(C)cc3)n2n1	-26	0	.	6	-6	i	2	-1
Cc1ccc(C)c(S(=O)(=O)NCc2ccc(C(=O)NCc3ccccn3)cc2)c1	.	-7	-3	-4	-10	i	-3	-2
COc1nccc(NCc2ccccc2)c1C#N	6	.	-17	.	-1	i	-2	6
C#CCOCCOCCOCCNc1nc(N2CCN(C(=O)CCCCCCCCCCNC(=O)[C@@H](CCSC)n3cc(CCO)nn3)CC2)nc(N2CCN(C(=O)CCCCCCCCCCNC(=O)[C@H](CCC(=O)O)n3cc(CCCCCN)nn3)CC2)n1	.	.	-12	.	-9	.	12	10
O=C(O)c1cc(-c2ccccc2)n[nH]1	-7	-5	-16	-3	4	i	-2	1
COC(=O)c1ccn(-c2nc(-c3ccco3)cc(C(F)(F)F)n2)n1	-92	-5	-18	-19	-1	i	0	4
COCCN1C(=O)c2ccc(C(=O)NCc3cccnc3)cc2C1=O	.	-2	-12	-7	7	i	2	1
COc1ncnc2c1oc1ccccc12	-69	-4	-10	-6	-7	.	5	6
O=C(C1CCN(CCCc2ccccc2)CC1)N1CCCCC1	.	-5	-20	-9	-9	i	1	2
CCOc1ccc(-c2cc(C(=O)N3CCCC3)c3ccccc3n2)cc1	.	15	-11	5	-5	i	2	-1
Cc1cc(N2CCN(C(=O)Nc3ccc(F)cc3F)CC2)c2ccccc2n1	.	-3	0	-2	-5	i	1	-1

Four structures out of the list, ordered by SMILES length, low to high:
SMILES	Env fusion inh	PABP polyA inh	Yeast UUG start	eIF4H inh	CSC inhib	Rce1 inh	MT1-MMP act inh	MT1-MMP act inh RFP	others
COc1ncnc2c1oc1ccccc12	-69	-4	-10	-6	-7	.	5	6
O=C(C1CCN(CCCc2ccccc2)CC1)N1CCCCC1	.	-5	-20	-9	-9	i	1	2
COCCN1C(=O)c2ccc(C(=O)NCc3cccnc3)cc2C1=O	.	-2	-12	-7	7	i	2	1
C#CCOCCOCCOCCNc1nc(N2CCN(C(=O)CCCCCCCCCCNC(=O)[C@@H](CCSC)n3cc(CCO)nn3)CC2)nc(N2CCN(C(=O)CCCCCCCCCCNC(=O)[C@H](CCC(=O)O)n3cc(CCCCCN)nn3)CC2)n1	.	.	-12	.	-9	.	12	10

Further records
SMILES	Env fusion inh	PABP polyA inh	Yeast UUG start	eIF4H inh	CSC inhib	Rce1 inh	MT1-MMP act inh	MT1-MMP act inh RFP	others
CCOC(=O)c1ccc(NCCc2ccc(OC)c(OC)c2)c(N)c1	8	-1	-11	-2	11	i	0	1
COc1ccc(OCCCn2cccc2/C=C2/C(=N)N3OC(C)=CC3=NC2=O)cc1	-22	4	.	-14	7	i	-4	-9
CC1CCN(S(=O)(=O)c2cc(C(=O)NC3(C)CCS(=O)(=O)C3)ccc2Br)CC1 (centres undefined)	18	.	15	.	.	.	-3	-4
O=C(CNC(=O)c1cccc(-n2cnnn2)c1)Nc1ccc(F)c(F)c1	.	.	-7	.	9	.	4	0
CCN(CC)c1ccc(C=C2C(=O)OC3(CCCCC3)OC2=O)cc1	-4	5	.	?	-19	i	1	3
Cc1nc2ccccc2c2oc(C(=O)N3CCN(C(=O)c4ccco4)CC3)cc12	1	5	-9	0	-18	i	-11	-6
O=c1[nH]c2ccc(NC(=S)NC3CCCCC3)cc2[nH]1	-11	-18	-13	38	-15	i	-3	2
CC(C)OC(=O)c1c(NC(=O)CCn2nnc3ccccc32)sc2c1CCCC2	-70	3	0	-10	0	i	-8	-5
COc1cnc(-c2ccccn2)nc1Oc1ccc(Cl)c2ccccc12	11	-8	-2	4	55	i	-2	-5
CCn1c2ccccc2c2cc(NC(=O)c3ccc(C)c([N+](=O)[O-])c3)ccc21	6	-8	.	-7	-3	i	1	-6
CNc1ccc(S(=O)(=O)NC)cc1[N+](=O)[O-]	4	1	.	3	-12	i	6	2
Cc1ccc(-c2csc3nc[nH]c(=O)c23)c(C)c1	7	6	-14	-2	-3	i	-2	-1

Already shown: an excerpt of the list.
SMILES	Env fusion inh	PABP polyA inh	Yeast UUG start	eIF4H inh	CSC inhib	Rce1 inh	MT1-MMP act inh	MT1-MMP act inh RFP	others
COc1cnc(-c2ccccn2)nc1Oc1ccc(Cl)c2ccccc12	11	-8	-2	4	55	i	-2	-5
CCn1c2ccccc2c2cc(NC(=O)c3ccc(C)c([N+](=O)[O-])c3)ccc21	6	-8	.	-7	-3	i	1	-6
CNc1ccc(S(=O)(=O)NC)cc1[N+](=O)[O-]	4	1	.	3	-12	i	6	2
Cc1ccc(-c2csc3nc[nH]c(=O)c23)c(C)c1	7	6	-14	-2	-3	i	-2	-1
